# PrP 5UTR inh: inhibition of PrP 5' UTR reporter expression; cell-based PrP 5' UTR mRNA reporter, plate reader; inhibition, % (concentration not given with the values); 0.35% of 340,000 active; AID 488862, 2010;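 active means every replicate at 50% or more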;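 further: 0 = median of the neutral control wells; tested in H4 reporter cells; numbers are from one replicate; inactives centre near -14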
# Sa ugtP lethal: growth inhibition of ugtP-null S. aureus, primary screen, RN4220 ugtP deletion, OD600; 16 h; some inactives read as strong as hits; growth inhibition, % (no concentration beside the values); 0.54% of 330,000 active; AID 1259309, 2017;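 active means z-score under -3 and OD600 up to 0.15 on both plates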;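 further: plate controls were untreated wells for no effect and antibiotic for full effect; wells of about 80 µL received 100 nL stock; the first replicate is given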
# Sa RN4220 lethal: growth inhibition of S. aureus RN4220, primary screen, OD600; inhibition, % (concentration not given with the values); 16 h; 0.33% of 330,000 active; AID 1259311, 2017;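 active means z-score of -3 or lower and OD600 up to 0.18 on both plates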;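 further: plate controls were untreated cells for no effect and reference antibiotic for full effect; stock transfer was 100 nL into about 80 µL; one replicate is shown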
# Mtb hypoxia inh: PubChem AID 1159583 | M. tuberculosis hypoxia-regulated fluorescent reporter, fluorescence | fluorescence inhibition, % (no concentration beside the values) | 0.1% of 300,000 active;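 active means 35 to 45% if threefold the growth effect, above 45% if 1.5-fold the growth effect; inactive means the rest, general growth blockers included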;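 further: wells of about 50 µL received 100 nL stock; 0% = vehicle wells and 100% = reference inhibitor wells; whole bacteria with a GFP reporter of the hypoxia response; strong numbers were not always called active; many hits fall short of the cut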
# BJeLR lethal: MLPCN primary cell-based screen for lethality selective to Ras in HRASV12 cells; BJeLR (HRASV12) viability, CellTiter-Glo ATP luminescence, 48 h; reference of the scale not given here; inhibition, % (test concentration not listed); 0.17% of 300,000 active; AID 1554, 2009;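 active means replicate mean above 50%; inconclusive means above 50% but judged a plate artefact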;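 further: 50 nL library stock added to about 25 µL; numbers are from one replicate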
# Autofluor counter: compound fluorescence in toxin protease inhibitor counterscreen | compound autofluorescence counterscreen, microsphere flow cytometry; stronger effect = higher value | fluorescence intensity (no concentration beside the values) | 3.1% of 360,000 active;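 active means at least 3 SD above the mean of all compounds, about 16000 in these data; inconclusive means too few beads counted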;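 further: 100 nL of 1 mM stock went into each well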
# Mtb hypoxia inh growth: further read-out of Mtb hypoxia inh, marked with its call; growth inhibition, %; measured here: M. tuberculosis growth (absorbance);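 0% = vehicle and 100% = reference antibiotic; read after six days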
# * hit, by the source's call; ? = inconclusive; . = not tested or not shown.
SMILES,PrP 5UTR inh,Sa ugtP lethal,Sa RN4220 lethal,Mtb hypoxia inh,Mtb hypoxia inh growth,BJeLR lethal,Autofluor counter
Cc1c(C)n(-c2ccccc2)c2ncnc(NCCN(C)C)c12,-5,0,0.8,11,-3,5,3391
O=C(Cn1c(=O)[nH]c2ccccc2c1=O)Nc1ccc2c(c1)OCCO2,-4,-1,-4.0,-8,-9,5,5153
CC1(C)N=C(c2ccccn2)C(C)(C)N1O,-21,-3,-2.4,-8,-19,-6,9237
CCN1CCN(CCCNC(=O)c2cc3cc4ccc(OC)cc4nc3o2)CC1,-21,0,-2.3,.,.,-3,3045
Cn1c(N)c(S(=O)(=O)NCc2ccccc2Cl)c(=O)n(C)c1=O,-14,7,0.7,-3,5,-3,2606
CC(C)(C)NC(=O)CN(CCN1CCOCC1)C(=O)CNS(=O)(=O)c1ccc(Cl)cc1,-24,11,0.9,5,0,-6,4114
Cc1ccc([N+](=O)[O-])cc1Nc1nc(N2CCOCC2)nc(N2CCOCC2)n1,-3,9,14,7,4,-10,4817
CC(Sc1n[nH]c(=O)[nH]c1=O)C(=O)OCc1ccccc1 (stereo not given),-13,-7,-8.1,13,1,2,2807
C[N+](C)(C)CCCN1C(=O)CCCC1=O,0,9,4.5,16,9,1,4358
COc1ccc(-c2nc(N)ncc2-c2ccccc2OC)c(O)c1,-8,13,2.9,10,3,3,3779
Cc1ccc(S(=O)(=O)NCc2csc(C)n2)c(C)c1,-6,3,18,-3,4,-1,3283
COCCCNC(=O)c1c(NC(=O)C2COc3ccccc3O2)sc2c1CCCC2 (stereo not given),7,-6,6.7,17,8,3,.
CCOC(=O)CNC(=O)COc1coc(CN2CCN(Cc3ccccc3)CC2)cc1=O,0,-1,1.3,-16,-10,2,5516
O=C(NCC1CCCCC1)c1cc([N+](=O)[O-])ccc1N1CCOCC1,-5,4,3.3,-5,1,2,3175
CCOC(=O)C1CCCN(c2c(NCCC(C)C)c(=O)c2=O)C1 (stereo not given),-11,12,5.8,-14,2,-6,5586
Cc1ccc2cc(C=O)c(Cl)nc2c1,-17,-2,6.0,6,4,4,4920
COc1ccc(CCN(C(=S)Nc2ccccc2)C2CC(=O)N(c3ccccc3)C2=O)cc1 (stereo not given),-6,-22,-3.5,.,.,-3,2384
CCOC(=O)c1ccc(NC(=O)c2ccccc2C)cc1,-67,-5,-0.4,-5,2,-17,7765
Cc1cccc(-n2c(C)n[nH]c2=S)c1C,-15,3,-0.6,.,.,0,4720
Cc1nn(-c2ccccc2)c(Cl)c1/C=C(/CC(=O)O)c1nc2ccccc2s1,-25,-14,5.8,4,3,.,4058
COc1ccc(C(=O)NC2CCN(C(=S)NCc3ccco3)CC2)cc1,-20,-4,-1.4,-3,-9,-4,5938
O=C(Cn1c(=O)cnc2ccccc21)NNC(=O)c1ccc(Cl)cc1,-24,3,-3.6,7,-1,.,3882
O=c1cc(Cn2ccnc2)c2cc3c(cc2o1)CCC3,-10,-3,0.2,3,0,-12,5547
CCOC(=O)C(NC(C)=O)(Nc1ccc(S(=O)(=O)Nc2ccncn2)cc1)C(F)(F)F (stereo not given),8,-7,-3.7,.,.,-2,2729
Cc1c(C)n(C)c2ccc(C(=O)NCCc3ccco3)cc12,-36,-2,2.6,11,12,0,6388
CN(C)C(=O)COC(=O)/C=C/c1ccccc1[N+](=O)[O-],-16,-7,-2.7,-1,9,18,5738
COCCNC(=O)[C@@H]1CSC2c3ccccc3C(=O)N21 (stereo not given in full),-14,1,1.3,6,-2,3,3519
CCOC(=O)/C(C#N)=C/c1c(N2CCN(C)CC2)nc2c(C)cccn2c1=O,-23,3,3.0,1,-1,2,3507
CC1(C)Cc2nc3sc4c(N5CCCC5)nnnc4c3cc2CO1,.,7,5.0,5,0,17,.
N=c1c(S(=O)(=O)c2ccc(Cl)cc2)cc2c(=O)n3ccccc3nc2n1CCc1ccccc1,-65,.,.,.,.,15,5658
COC(=O)c1ccc(C=Cc2c(-c3ccc(OC)cc3)oc3ccc(N4CCOCC4)cc23)cc1,.,9,1.9,-7,-1,.,.
COc1ccc(Cn2c(O)c(C=Nc3ccccc3)c3ccccc3c2=O)cc1,-10,.,.,.,.,-2,2433
CCOC(=O)C1C2COc3ccc(Cl)cc3C2N2C(=O)c3cc(F)c(F)cc3NC(=O)[C@@]12C (stereo not given in full),.,-38,-5.0,-3,-7,.,.
O=C(NN=Cc1ccc(O)cc1O)c1ccncc1,.,8,3.1,8,4,.,.
COC(=O)c1cc(C(=O)c2ccc(Cl)cc2Cl)cn1C,-8,3,2.0,-2,3,-2,21700*
Cc1ccc(-c2ccc(=O)n(Cc3ccc(F)cc3Cl)n2)cc1,-13,-9,-3.7,16,0,-3,3868
C#CCOCOCC#CCN(CC)CC,-7,6,0.7,.,.,0,4826
COc1ccc(/C=N/n2cnc3c(sc(=S)n3-c3ccccc3)c2=O)cc1,-18,.,.,.,.,-9,4513
O=C(/C=C/c1ccccc1)N(Cc1cccc(Cl)c1)C1CCS(=O)(=O)C1 (stereo not given),-9,-7,-3.6,-6,5,10,4613
Cc1cc(C(=O)NCc2cccnc2)no1,-11,-4,-1.6,0,6,8,22225*

# An excerpt from above in order of count of non-hydrogen atoms, ascending.
SMILES,PrP 5UTR inh,Sa ugtP lethal,Sa RN4220 lethal,Mtb hypoxia inh,Mtb hypoxia inh growth,BJeLR lethal,Autofluor counter
C#CCOCOCC#CCN(CC)CC,-7,6,0.7,.,.,0,4826
Cc1cc(C(=O)NCc2cccnc2)no1,-11,-4,-1.6,0,6,8,22225*
O=C(NN=Cc1ccc(O)cc1O)c1ccncc1,.,8,3.1,8,4,.,.
COC(=O)c1cc(C(=O)c2ccc(Cl)cc2Cl)cn1C,-8,3,2.0,-2,3,-2,21700*
Cc1c(C)n(C)c2ccc(C(=O)NCCc3ccco3)cc12,-36,-2,2.6,11,12,0,6388
Cc1ccc(-c2ccc(=O)n(Cc3ccc(F)cc3Cl)n2)cc1,-13,-9,-3.7,16,0,-3,3868
CC1(C)Cc2nc3sc4c(N5CCCC5)nnnc4c3cc2CO1,.,7,5.0,5,0,17,.
O=C(Cn1c(=O)cnc2ccccc21)NNC(=O)c1ccc(Cl)cc1,-24,3,-3.6,7,-1,.,3882
O=C(/C=C/c1ccccc1)N(Cc1cccc(Cl)c1)C1CCS(=O)(=O)C1 (stereo not given),-9,-7,-3.6,-6,5,10,4613
COc1ccc(/C=N/n2cnc3c(sc(=S)n3-c3ccccc3)c2=O)cc1,-18,.,.,.,.,-9,4513
CCOC(=O)/C(C#N)=C/c1c(N2CCN(C)CC2)nc2c(C)cccn2c1=O,-23,3,3.0,1,-1,2,3507
COc1ccc(Cn2c(O)c(C=Nc3ccccc3)c3ccccc3c2=O)cc1,-10,.,.,.,.,-2,2433
CCOC(=O)C(NC(C)=O)(Nc1ccc(S(=O)(=O)Nc2ccncn2)cc1)C(F)(F)F (stereo not given),8,-7,-3.7,.,.,-2,2729
CCOC(=O)C1C2COc3ccc(Cl)cc3C2N2C(=O)c3cc(F)c(F)cc3NC(=O)[C@@]12C (stereo not given in full),.,-38,-5.0,-3,-7,.,.
N=c1c(S(=O)(=O)c2ccc(Cl)cc2)cc2c(=O)n3ccccc3nc2n1CCc1ccccc1,-65,.,.,.,.,15,5658
COC(=O)c1ccc(C=Cc2c(-c3ccc(OC)cc3)oc3ccc(N4CCOCC4)cc23)cc1,.,9,1.9,-7,-1,.,.

# Next entries
SMILES,PrP 5UTR inh,Sa ugtP lethal,Sa RN4220 lethal,Mtb hypoxia inh,Mtb hypoxia inh growth,BJeLR lethal,Autofluor counter
CCN(CC)CCOc1nc(C)nc2c1oc1ccccc12,-29,-3,2.8,7,7,4,4333
COc1cccc(-n2c(SC)nnc2-c2cnccn2)c1,-15,4,0.7,0,1,3,20539*
C=CCN1C(=O)C(CC(=O)Nc2ccc(OCC)cc2)N(Cc2ccccn2)C1=S (stereo not given),-7,12,10,1,9,6,.
Cc1ccc(/C=N/OC(=O)c2c(C)noc2-c2snnc2C)cc1,-9,.,.,.,.,-10,4519
O=c1c(-c2ccc3c(c2)OCCO3)c(C(F)(F)F)oc2cc(O)cc(O)c12,-18,10,7.1,13,2,-6,9221
COC(=O)CCNC(=O)Cc1ccc(S(=O)(=O)N2CCCCC2)s1,-18,14,2.9,5,-6,.,5196
O=C(CSc1nnc2scc(-c3ccccc3)n12)N1CCN(Cc2ccccc2)CC1,-18,7,4.9,-3,0,1,9711
COc1ccccc1-c1cc(-c2ccccc2)nc(SC(C(N)=O)c2ccccc2)c1C#N (stereo not given),-4,-8,-0.8,8,11,0,4162
Cc1cc(N2CCCC2=O)cc(C)c1S(=O)(=O)NCCOc1ccc(C(C)(C)C)cc1,-3,-17,1.5,.,.,-3,4692
COCCNC(=O)/C(C#N)=C/c1c(N2CCN(c3ccc(OC)cc3)CC2)nc2c(C)cccn2c1=O,-11,9,1.5,-10,5,-4,3896
CC(C)(CCO)NC(=S)NC1CC2C=CC1C2 (stereo not given),-3,-1,2.5,-11,-11,12,5429
Cc1ccccc1NC(=O)c1c(F)c(F)c(F)c(F)c1F,-21,-10,-4.0,-6,-1,-9,16318*
O=C(CN1CCN(Cc2ccccc2)CC1)N/N=C/c1ccccc1F,-26,.,.,.,.,15,4151
CCCCNC(=O)CSc1nc(COc2ccccc2)nc2ccccc12,-10,-4,1.9,4,-1,-1,3613
CCCC(C(=O)NC1CCCC1)N(C(=O)c1snc(C(N)=O)c1N)c1ccc(OCC)cc1 (stereo not given),-19,-1,2.6,-23,0,-12,4650
Nc1ccccc1Nc1ccccc1,-21,-3,24,.,.,7,2257
O=C1CSC(=NN=Cc2ccco2)N1Cc1ccc(F)cc1,.,16,2.1,7,5,.,.
COC(CN(C)C(=O)C1CCC(CNS(=O)(=O)c2ccccc2)CC1)OC (stereo not given),-10,10,4.2,-14,-7,-3,3514
Cc1oc2cc([N+](=O)[O-])c(O)c([N+](=O)[O-])c2c1C(=O)c1ccc(Cl)cc1,-23,10,17,21,6,0,?
CCN(CC1CCCN(CCc2cccc(OC)c2)C1)C(=O)c1ccoc1C (stereo not given),-2,11,3.4,11,3,-5,5414

# A portion from further up:
SMILES,PrP 5UTR inh,Sa ugtP lethal,Sa RN4220 lethal,Mtb hypoxia inh,Mtb hypoxia inh growth,BJeLR lethal,Autofluor counter
Cc1oc2cc([N+](=O)[O-])c(O)c([N+](=O)[O-])c2c1C(=O)c1ccc(Cl)cc1,-23,10,17,21,6,0,?
CCN(CC1CCCN(CCc2cccc(OC)c2)C1)C(=O)c1ccoc1C (stereo not given),-2,11,3.4,11,3,-5,5414

# Compound activity as filed in PubChem BioAssay.
